HSD17B inhib = qHTS Assay for Inhibitors of HSD17B4, hydroxysteroid (17-beta) dehydrogenase 4; Potency, µM (titrated, usually from 57.1 µM), without a hit: at the highest dose activity change, negative = inhibition, actives largely listed as inhibitors; 75,000 tested, 7.6% active; 3-hydroxyacyl-CoA dehydrogenase type-2 (Homo sapiens), Q99714; AID 893, 2007; recombinant HSD17B10, NADH fluorescence kinetic; many of its hits are not listed in these tables; active = well fitted inhibition curve with a large enough effect; inconclusive = small, poorly fitted or top-dose-only effect; inactive = no such curve, though single readings can be large or run the other way;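 note: the protocol describes HADH2 (HSD17B10) and not the HSD17B4 of the title; nearly all actives have a fitted effect of over 70% in size; most hits overshoot -100% by far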
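20 nM HADH2, pH 9.0 Tris/Tween; cpd preinc 15 min RT; start w/ 1 mM NAD+ + 90 uM b-hydroxybutyryl-CoA; kinetic fluor ex360/em450 q30s x 4 min; delta last-first.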
Numbers without * were called inactive; i = inactive; ? = inconclusive; [ ] = another dose, or the depositor's remark. % is set by controls: 0 for no effect and ±100 for the full control effect; potency is the fitted concentration of half-maximal effect.

Structure	HSD17B inhib
Cc1oc(CC(C)C)c(CN2CCCC2)c1C(=O)O	6.2%
COc1ccccc1CNS(=O)(=O)c1ccc2c(c1)oc(=O)n2C	5.2%
CCc1nc(C)cn1S(=O)(=O)c1cc(OC)c(C)cc1C	7.2%
CC(C)(O)CCC(O)[C@@](C)(O)C1CC[C@]2(O)C3=CC(=O)C4CC(O)C(O)C[C@]4(C)C3CC[C@]12C (stereo partly drawn)	4.0%
CCCNC(=O)NC(=O)COC(=O)c1ccc(OC)c(S(=O)(=O)N2CCCc3ccccc32)c1	-5.5%
C=CCNc1nc(N)c(C(=O)c2ccc3c(c2)OCO3)s1	-8.2%
O=C(CCc1nc2ccccc2[nH]c1=O)OCc1ccc(S(=O)(=O)N2CCOCC2)cc1	?
CCn1c(NCc2cccc(OC)c2OC)nc2ccccc21	7.9%
O=C(Nc1ccccc1)OC1C2CCC1C(N1CCCCC1)CC2 (stereo not drawn)	?
COc1cc(C)c(Cl)cc1S(=O)(=O)NCc1ccco1	-11.9%
CC1CN(C(=O)Nc2ccc3snnc3c2)c2ccccc21 (stereo not drawn)	-2.6%
NC(C(=O)NC1C(=O)N2C(C(=O)O)=C(Cl)CSC12)c1ccccc1 (stereo not drawn)	?
CCOC(=O)c1ccc(NC(=O)CC2OCCN(CC)C2=O)cc1 (stereo not drawn)	-13.8%
CSc1nc(SCC(N)=O)c2c3c(sc2n1)CN(C)CC3	-4.8%
CCOCCCNc1ncnc2c1[nH]c1ccccc12	?
OCc1ccc(-c2nn(Cc3ccccc3)c3ccccc23)o1	25.1µM*
Cc1cc(C)c(C#N)c(SCc2ccccc2C(=O)O)n1	3.2%
O=C(CN1C(=O)COc2ccc(Cl)cc21)N1CCc2ccccc21	6.2%
Clc1ccc(SCCn2ccnc2)cc1	4.4%
CCOC(=O)C(CC)Sc1nc2c(c(=O)[nH]c(=O)n2C)n1C/C=C(/C)Cl (stereo not drawn)	-20.8%
Cc1c(-c2ccccc2)nc2ccccc2c1C(=O)O	-5.7%
Cn1c(SCCSc2nnc(-c3ccccc3)n2C)nnc1-c1ccccc1	7.2%
CN(C)c1ccc(-c2nccc(NCCN3CCOCC3)n2)cc1	31.6µM*
CCOC(=O)c1[nH]c(C)c(C(=O)N2CCN(c3ccccc3)CC2)c1C	6.1%
NC(=O)COC(=O)C(Cc1ccccc1)NS(=O)(=O)c1ccccc1F (stereo not drawn)	4.3%
CCn1c(=O)c2ccccc2n2c(SCC(=O)N3CCCc4ccccc43)nnc12	1.8%
Cc1cc(S(=O)(=O)NCCc2ccccc2)c(C)s1	-0.4%
O=C1CCc2cc(S(=O)(=O)N3CCC(C(=O)NCc4ccccn4)CC3)ccc2N1	-6.3%
Cn1c(SCC(=O)NCc2ccc3c(c2)OCO3)nnc1-c1c[nH]c2ccccc12	-2.9%
O=C(NCc1cccnc1)c1cn(CCc2ccccc2)nn1	-0.9%
Cc1cc(Nc2ccccc2)n(CCC#N)n1	-2.1%
CC(=O)c1cccc(NS(=O)(=O)N(C)C)c1	7.8%
Cc1nnc(SCC(=O)N2c3ccccc3Sc3ccccc32)n1N	-0.2%
O=C(NC1CCCCC1)Sc1ccc(Cl)cc1	-1.6%
O=C(CCn1nc(-c2ccc(Cl)cc2)ccc1=O)NCc1ccccn1	-1.9%
CN(C)c1ccc(NC(=O)CN2CCN(S(=O)(=O)c3cc(Cl)ccc3Cl)CC2)cc1	-12.3%
CCOC(=O)c1[nH]c(C)c(C(=O)N2CCN(c3ccc(F)cc3)CC2)c1C	-2.7%
O=S(=O)(c1ccccc1)c1nc(-c2cccs2)oc1NCC1CCCO1 (stereo not drawn)	-9.5%
CC(=O)c1cccc(NC(=O)c2ccc(Br)o2)c1	-9.4%
N=C1C(c2nc3ccccc3[nH]2)=C(O)CN1c1ccccc1	?
O=c1c2cc3c(=O)n(CC4CCCO4)c(=O)c3cc2c(=O)n1CC1CCCO1 (stereo not drawn)	-21.7%
CC(=O)Nc1ccc(Oc2nc(C)cc(C)n2)cc1	2.4%
O=C(CSc1nc2ccccc2c(=O)[nH]1)Nc1ccc(S(=O)(=O)N2CCCC2)cc1	-2.7%
Cc1nnc2ccc(N3CCC4(CC3)OCCO4)nn12	-2.4%
N#CC1(c2ccccc2)CCCN1C(=O)c1ccco1 (stereo not drawn)	9.2%
O=C(Cc1c(O)c2ccccc2[nH]c1=O)NCc1ccccc1F	?
Cn1c(N)c(C(=O)COC(=O)c2ccc3c(c2)OCCO3)c(=O)n(C)c1=O	-1.1%
COc1ccc(S(=O)(=O)Nc2ccc(S(=O)(=O)N3CCOCC3)cc2)cc1C	7.0%

A different layout for 3 compounds above.
SMILES: CC(=O)Nc1ccc(Oc2nc(C)cc(C)n2)cc1
  HSD17B inhib: 2.4%

SMILES: O=C(CSc1nc2ccccc2c(=O)[nH]1)Nc1ccc(S(=O)(=O)N2CCCC2)cc1
  HSD17B inhib: -2.7%

SMILES: Cc1nnc2ccc(N3CCC4(CC3)OCCO4)nn12
  HSD17B inhib: -2.4%

Returning to the listing, starting 2 compounds before the break.
Structure	HSD17B inhib
Cn1c(N)c(C(=O)COC(=O)c2ccc3c(c2)OCCO3)c(=O)n(C)c1=O	-1.1%
COc1ccc(S(=O)(=O)Nc2ccc(S(=O)(=O)N3CCOCC3)cc2)cc1C	7.0%
COc1ccc(C(=O)N=c2nc3ccccn3s2)cc1	11.8%
CC12CC(NC(=O)N1c1cccc(C(=O)N3CCN(c4ccccn4)CC3)c1)c1ccccc1O2 (stereo not drawn)	-9.3%
O=C1OC(N2CCN(c3ccccn3)CC2)c2ccccc21 (stereo not drawn)	-1.8%
CCOc1ccccc1N(C(=O)c1snc(C(N)=O)c1N)C(C(=O)NCCC(C)C)c1ccco1 (stereo not drawn)	31.6µM*
Cn1c(=O)c2c(nc(CN3CCN(Cc4ccccc4)CC3)n2Cc2cccc(Cl)c2)n(C)c1=O	-6.0%
CC(C(=O)NCC1(c2ccccc2)CCCC1)N1CCCC1 (stereo not drawn)	2.3%
COc1cc(CCC(=O)Nc2cc(Cl)ccc2N2CCN(C)CC2)cc(OC)c1OC	-2.0%
CCn1c(=O)cc(N2CCC3(CC2)OCCO3)[nH]c1=O	0.4%
COc1ccc(C2C3=C(CC(C)(C)CC3=O)Oc3ncn(CCCn4ccnc4)c(=N)c32)cc1 (stereo not drawn)	4.9%
Cc1cccc(NC(=O)C(C)Oc2ccccc2C)n1 (stereo not drawn)	6.1%
O=C(O)C1[C@H]2C(=O)N(C3CCCC3)C[C@]23C=C[C@H]1O3 (stereo partly drawn)	8.1%
COc1ccc(C2C3=C(CCCC3=O)Nc3nc(SCc4ccccc4)nn32)cc1OC (stereo not drawn)	i
Cc1ccc(-c2nnn(CC(=O)Nc3ccc4nn(-c5ccccc5)nc4c3)n2)o1	-1.6%
COC(=O)C/C=C\[C@H](C)[C@H](CO)NS(=O)(=O)c1ccc(C)cc1	1.6%[11.4 µM]
COc1ccc(OC)c(NC(=O)Cn2cccc2)c1	12.4%
COC(=O)Nc1nc2c(s1)CCCC2	3.7%
CCOC(=O)c1ccc(Oc2nc(SC)nc(N(C)C)n2)cc1	3.2%
CCCCn1c(SCC(=O)NCc2cccs2)nc2c1c(=O)n(C)c(=O)n2C	4.3%
O=C(O)c1cc(S(=O)(=O)N2CCCCCC2)ccc1Cl	3.2%
CNC(=O)[C@@]1(C)C=C[C@@H](Cc2ccccc2)N1C(C)=O	3.3%
C=CCN1C(=O)C(C)(C)Nc2ccccc21	3.2%
COc1cccc2cc(NC(=O)C3CCCCC3)c(=O)oc12	12.6µM*
COc1cc(C(=S)N2CCCCC2)ccc1OCC(=O)N1CCCC1	0.9%
Cc1cnc(CNc2cc(-c3ccccc3C)ncn2)cn1	-5.6%
COC(=O)c1ccc(Oc2c(C)oc3c(CN4CCN(C)CC4)c(O)ccc3c2=O)cc1	31.6µM*
COc1ccc(-c2noc(CSc3nc4ccccc4c(=O)n3-c3ccccc3)n2)cc1	-9.0%
O=C1CC2(CON=C2c2ccc(F)cc2)C(=O)N1c1ccc(F)cc1 (stereo not drawn)	-8.8%
COc1ccc(-n2nc3cc(C)c(N)c(Br)c3n2)cc1	25.1µM*
O=C(Nc1ccc2snnc2c1)N1CCSCC1	-1.7%
COc1ccccc1N=c1oc2cc(O)ccc2cc1C(N)=O	15.8µM*
COc1cccc(-c2nc(CS(=O)(=O)CC(=O)N3CCc4ccccc4C3)c(C)o2)c1	-17.4%
Oc1cc2c(cc1O)CN(C(=S)NCCc1ccc(Cl)cc1)CCC2	15.8µM*
CCOC(=O)C1CCCN(c2nc(C)nc3c2oc2ccccc23)C1 (stereo not drawn)	-0.4%
CCOC(=O)CCC(=O)O[C@H]1C(O[C@@H]2C(C)[C@H](O[C@H]3C[C@@](C)(OC)C(O)C(C)O3)C(C)C(=O)OC(CC)[C@@](C)(O)C(O)[C@H](C)C(=O)C(C)C[C@]2(C)O)OC(C)CC1N(C)C (stereo partly drawn)	0.9%
NC(=O)CC1(CC(=O)O)CCCCC1	9.5%
Cc1ccccc1-n1c(C)nc2ccccc21	1.9%
Cn1c2c(c(=O)n(C)c1=O)C(NC(=O)c1ccco1)(C(F)(F)F)C(=O)N2 (stereo not drawn)	1.6%
C=CCCC(=O)Nc1ccc(COC(=O)N2CCOCC2)cc1	-0.3%
CCOC(=O)N1CCN(c2nc(-c3ccc(OC)cc3)no2)CC1	3.9%
Nc1ccc(O)c(-c2nc3ccccc3s2)c1	?
COC(=O)c1cccc(N(C(=O)c2cnccn2)C(C(=O)NCc2ccccc2)c2ccco2)c1 (stereo not drawn)	3.5%
CCN(CC)c1ccc(N2C(=O)c3ccccc3C2=O)cc1	2.3%
COc1ccc(C)cc1NC(=O)CSc1nnc(-c2ccc(C)cc2)o1	-1.9%
CCn1c2ccccc2c2nnc(SCc3cc(=O)n4ccsc4n3)nc21	-0.7%
O=C1c2ccccc2C(O)N1c1cccnc1 (stereo not drawn)	5.6%
CC1(C)CC(=O)C2=C(C1)OC(N)=C(C#N)C2C1CC=CCC1 (stereo not drawn)	-5.8%
O=C(Cn1c(=O)sc2ccccc21)NCCOc1ccccc1F	8.9%
CC1CCCCC1NC(=O)CN1CCN(Cc2ccccc2Cl)C1=O (stereo not drawn)	0.7%
Cc1ccc(N2CC(C(=O)N3CCN(C(=O)c4ccco4)CC3)CC2=O)cc1 (stereo not drawn)	0.1%
Cn1c(CCNC(=O)c2ccco2)nc2cc(NC(=O)c3ccco3)ccc21	6.9%
CCOc1ccccc1NC(=O)CN(c1ccc(C)cc1)S(=O)(=O)c1c(C)noc1C	-0.4%
CO[Si](CCCNCCC[Si](OC)(OC)OC)(OC)OC	1.8%
CC1CCN(CCNC(=O)c2ccc3c(=O)n(CCc4ccccc4)c(=O)[nH]c3c2)CC1	-4.8%
COc1ccc(C)cc1Nc1cc(C)nc2ncnn12	0.1%
O=C(Nc1cccc(Cl)c1)c1cnn2cccnc12	-12.7%
CC1CCCC(C)N1CCNC(=O)CCn1nc(-c2ccccc2)ccc1=O (stereo not drawn)	-14.8%
Cc1ccc(Cn2c(CN3CC(C)OC(C)C3)nc3c2c(=O)[nH]c(=O)n3C)cc1 (stereo not drawn)	4.9%
COC(=O)[C@H](C)NC(=O)C/C=C\[C@@H](C)[C@@H](CO)OC	0.9%[11.4 µM]
Cc1c(Cl)cccc1NC(=O)CCN1CCCCCC1	-0.5%
O=S(=O)(c1cccs1)n1cccn1	5.9%

(cont.)
Structure	HSD17B inhib
O=C(c1ccco1)N1CCN(c2ncnc3c2oc2ccccc23)CC1	-2.4%
CC(NC(=O)Cc1cccs1)C(c1cccs1)N1CCN(c2ccccc2)CC1 (stereo not drawn)	-15.8%
O=C(OCc1c(Cl)cccc1Cl)c1ccccn1	12.9%
CCOC(=O)N1CCN(Cc2nc3c(c(=O)[nH]c(=O)n3C)n2Cc2cc(C)ccc2C)CC1	-1.1%
COc1ccc(CC(=O)Nc2cc(Cl)ccc2O)cc1	2.7%
O=C1CC(c2ccccc2)CN1Cc1ccccc1 (stereo not drawn)	-4.1%
CN1C[C@@H]2C(c3ccc(Cl)nc3)C3(c4ccccc4)CC2(C3)[C@H]1c1ccccc1 (stereo partly drawn)	4.1%
O=C(NCc1cccc(Cl)c1)c1cnccn1	1.8%
O=C(OCc1nnc(-c2ccccc2)o1)C1=COCCO1	-0.8%
O=C(N1CCOCC1)N1CCN(S(=O)(=O)c2ccccc2)C1	-3.0%
Cc1ccc2nc(NC(=O)C3CCN(S(=O)(=O)c4ccc5c(c4)oc(=O)n5C)CC3)sc2c1	2.0%

Taken from above:
CCOC(=O)N1CCN(Cc2nc3c(c(=O)[nH]c(=O)n3C)n2Cc2cc(C)ccc2C)CC1 in HSD17B inhib has -1.1%
CC(NC(=O)Cc1cccs1)C(c1cccs1)N1CCN(c2ccccc2)CC1 (stereo not drawn) in HSD17B inhib has -15.8%
O=C(OCc1nnc(-c2ccccc2)o1)C1=COCCO1 in HSD17B inhib has -0.8%
O=C(NCc1cccc(Cl)c1)c1cnccn1 in HSD17B inhib has 1.8%
O=C1CC(c2ccccc2)CN1Cc1ccccc1 (stereo not drawn) in HSD17B inhib has -4.1%

Screening results deposited in PubChem BioAssay by National Center for Advancing Translational Sciences (NCATS).

Some of the compounds tested; the hit share may differ from the screen's.
